High-throughput results: PubChem BioAssay, National Center for Advancing Translational Sciences (NCATS)
HPGD block: inhibitors of human 15-hydroxyprostaglandin dehydrogenase (HPGD); hit rate 4.3% among 150,000; P15428; AID 894; purified HPGD, NADH fluorescence kinetic, PGE2 substrate; Potency, µM, for the others: at the highest dose activity change, negative = inhibition, hits mostly inhibitors; active = well fitted inhibition curve with a large enough effect (not every such curve was filed as active); inconclusive = small, poorly fitted or top-dose-only effect, or another doubt; inactive = no such curve, though single readings can be large or run the other way;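 also: top concentration of the series not given in the record; plate controls included wells without enzyme; inactives centre near -10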
Target sequence (P15428 whole entry, looked up): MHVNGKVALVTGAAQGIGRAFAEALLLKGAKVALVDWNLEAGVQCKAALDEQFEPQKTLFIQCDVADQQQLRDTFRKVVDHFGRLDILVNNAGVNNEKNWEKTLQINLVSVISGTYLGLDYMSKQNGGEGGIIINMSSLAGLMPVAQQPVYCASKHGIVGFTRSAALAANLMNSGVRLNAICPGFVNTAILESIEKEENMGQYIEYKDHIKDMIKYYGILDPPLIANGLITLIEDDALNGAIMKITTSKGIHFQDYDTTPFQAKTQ
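20 nM HPGD preincubated 15 min at room temperature with compound in 50 mM Tris-HCl pH 8, 0.01% Tween 20. Started with 1 mM NAD+ and 30 uM prostaglandin E2; NADH fluorescence (360/450 nm) read 5 times over 30-s intervals, last minus first.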
* hit, by the source's call; ? = inconclusive; & = joins results of further samples; [ ] = dose if it differs, or a comment. % is scaled to controls: 0 for no effect and ±100 for the full control effect; potency is read from the fitted curve at half-maximal effect. These rows are one share of the data; count on the stated rates, not on these rows.

HPGD block	Molecule
-3%	N#Cc1cc(-c2ccccc2)nc(Oc2ccc(Cl)cc2)n1
-7%	Cc1sc(CO)c(Sc2ccccc2)c1C(=O)O
?	CC(=O)N1CCCc2cc(S(=O)(=O)N3CCN(c4ccccn4)CC3)ccc21
-12%	CCN=C1SC(C(=O)Nc2cccc(C(=O)O)c2)CC(=O)N1CC (stereo not drawn)
?	O=C1NCC(CN(c2ccccc2)c2ccccc2)O1 (stereo not drawn)
-10%	Cc1ccc(-c2nnc(N3CCN(C(=O)Cn4c(=O)n(C)c5ccccc54)CC3)c3ccccc23)cc1
-16%	CCC(C)NC(=O)CCS(=O)(=O)c1ccc2c(c1)n(C)c(=O)c(=O)n2C (stereo not drawn)
-13%	Cn1c(=O)c2c(nc(Oc3ccccn3)n2C)n(C)c1=O
-11%	CC(=O)C1=C(NC(=O)c2ccccc2F)C[C@@H]2[C@H]1C2(C)C
5%	COc1ccc(-n2nc3c(c2NC(=O)Cc2cccc(C)c2)CS(=O)C3)cc1 (stereo not drawn)
-11%	Cc1ccccc1NC(=S)Nc1ccc(Br)cc1
-10%&-9%&-19%	COc1c2c(nc3ccccc13)OC(C(C)(O)CO)C2 (stereo not drawn)
-16%	CC(C)NS(=O)(=O)c1ccc(NC(=S)NC(=O)c2ccc(-c3ccccc3)cc2)cc1
-3%	Clc1ccc(-c2cn3c(n2)CCC3)cc1
-7%	S=c1[nH]c2ncccc2o1
-13%	CCOC(=O)C(CC)n1nc(C)n2c(cc3occc32)c1=O (stereo not drawn)
-12%	CCCCCOc1ccc(NC(=O)C(=O)NCCC2=CCCCC2)cc1
?	CN1CCN(c2nc(-c3cc4ccccc4o3)cs2)CC1
-14%	CCCCN(C)C(=O)c1cn(C)c2ccc(S(=O)(=O)N(C)C)cc2c1=O
-9%	COc1ccccc1CN(Cc1cc2cc(C)cc(C)c2[nH]c1=O)Cc1nnnn1CC1CCCO1 (stereo not drawn)
-14%	COc1cccc(C2c3c(oc4ccc(Cl)cc4c3=O)C(=O)N2c2cc(C)on2)c1OC (stereo not drawn)
-2%	COc1ccccc1CNS(=O)(=O)c1cccc(S(=O)(=O)N2CCOCC2)c1
-7%	O=C(CSc1ncccn1)Nc1ccc(S(=O)(=O)N2CCCCC2)cc1
-8%	O=C1CCCCCN1CP(=O)(O)CCc1ccccc1
-5%	N#Cc1cnc(SCC(=O)NNC(=O)COc2cccc3ccccc23)nc1N
-6%	O=C(NC(Cc1ccccc1)C(=O)O)c1ccccc1 (stereo not drawn)
-9%	O=C1OCc2ccc(NC(=O)C3CCCCC3)cc21
-6%	COc1ccc(C(=O)CSc2nnc(Cn3nnc4ccccc43)n2C)cc1
-10%	CCOc1ccc(CN(C)CC(=O)Nc2cc(OC)c([N+](=O)[O-])cc2C)cc1
-9%	O=C(Cn1cnc2c(nnn2Cc2ccc(F)cc2)c1=O)N1CCN(c2ccccc2)CC1
-5%	CCOC(=O)c1ccccc1NC(=O)Cn1cnc2c1c(=O)n(C)c(=O)n2C
-3%	CC(=O)Nc1cc(-c2ccccc2)nn1Cc1ccc(Cl)cc1
4%	O=C(CNC1CCCCCC1)Nc1ccc(N2CCCC2)cc1
-12%	CCCCn1cnc2sc3c(c2c1=N)CCCC3
?	CSc1nnc2c(n1)[nH]c1c(C)cccc12
-17%	COC(=O)c1ccc(NC2CC(=O)N(c3ccccc3C)C2=O)cc1 (stereo not drawn)
-10%	c1ccc(OCCCCN2CCOCC2)cc1
-10%	CCC/C=C(\CCC)C(NS(=O)(=O)c1ccc(-c2ccccc2)cc1)c1ccc(C(=O)OC)cc1 (stereo not drawn)
-5%	Cc1cc(Cl)ccc1Nc1sc(C(=O)c2cc3cc(Cl)ccc3o2)c(N)c1C#N
-13%	Cc1ccc(C(=O)NC(=S)N2CCN(c3ccccc3F)CC2)cc1
-15%	CC(=O)Nc1ccc(S(=O)(=O)N2CCC(c3nc4ccccc4[nH]3)CC2)cc1
-23%	Cc1c(NC(=O)C(Sc2ccccc2)c2ccccc2)cccc1[N+](=O)[O-] (stereo not drawn)
1%	COC(=O)c1cc2n(n1)CCN(Cc1ccc(C)cc1)C2=O
?	CN1CCc2c(sc3c2C(=O)NC(c2ccccn2)N3)C1 (stereo not drawn)
-3%	NC(Cc1c[nH]c2ccccc12)C(=O)NCC(=O)O (stereo not drawn)
-21%	CCCCCCC(=O)N/N=C/Cc1ccccc1
-10%	O=C(CN1CCOCC1)NC1CC2CCC1C2 (stereo not drawn)
-7%	O=C(NN1C(=O)c2cc(Br)ccc2NC1c1cc(Br)cc(Br)c1O)c1ccncc1 (stereo not drawn)
-6%	COC(=O)[C@@H]1C=C[C@H](C)[C@H](CCOc2ccccc2)O1
-26%	Cc1ccccc1NC(=O)c1sc(NC(=O)COc2ccccc2)c(C#N)c1C
-12%	CCCCOc1c(Br)cc(/C=C2\N=C(C)OC2=O)cc1OCC
-16%	CCN(CC)S(=O)(=O)N1CCC(C(=O)NCc2ccc3c(c2)OCO3)CC1
-5%	CCC1Oc2ccccc2N(CC(=O)NCCC2=CCCCC2)C1=O (stereo not drawn)
-2%	COC(=O)[C@H](Cc1ccccc1)NC(=O)NCC1CCCO1 (stereo partly drawn)
-18%	O=C(COC(=O)c1ccccc1C(=O)c1ccc(Cl)cc1)NCCc1ccccc1
35µM*	Cc1ccc(-c2cnn(-c3cccc([N+](=O)[O-])c3)c2N)cc1
-12%	O=C1C(Cl)=C(Nc2ccc(F)cc2)C(=O)N1CCc1ccccc1
-7%	Cc1ccc(/C(O)=C2/C(=O)C(=O)OC2c2ccc(Cl)cc2)cc1 (stereo not drawn)
-10%	O=C(C1=C(O)C(=O)N(c2ncccn2)C1c1cccs1)c1ccco1 (stereo not drawn)
-1%	COc1ccc(-n2c(COc3cccc4ccccc34)nnc2SCC#N)cc1

Next section.
HPGD block	Molecule
-9%	CCOC(=O)/C=c1\s/c(=C\c2ccc(C(F)(F)F)cc2)c(=O)n1CC(=O)NCc1ccco1
-15%	O=C(O)CCc1ccc(-c2ccccc2)[nH]1
?	COc1ccc(CNC(=O)Cn2nc(-c3ccc4c(c3)OCCO4)ccc2=O)cc1
-10%	COC(=O)C1=C(SC)N(c2ccccc2)C(c2ccccc2)CC1=O (stereo not drawn)
-1%	CC(=O)Nc1ccc(N2C(=O)CSC2c2c(F)cccc2Cl)cc1 (stereo not drawn)
-23%	O=C(c1ccc(Cl)c([N+](=O)[O-])c1)N(Cc1cccc(Cl)c1)C1CCS(=O)(=O)C1 (stereo not drawn)
-7%	CCN(CC)CCn1c(NCc2ccccn2)nc2ccccc21
-3%	CCC(=O)Nc1ccc(-c2nnc(SCC(=O)Nc3nccs3)n2C)cc1
-16%	COc1ncc2nc(C)c(=O)n(CCC#N)c2n1
-18%	COc1cc(NC(=O)Nc2ccccc2)c(OC)cc1NC(=O)CN1CCCCC1
-2%	Cc1nnc(S(=O)(=O)c2ccc(N=Nc3c(N)nc(N)nc3N)cc2)s1
-19%	CC(=O)c1ccc(NC(=O)c2ccccc2Sc2ncnc3sc(C)c(C)c23)cc1
4%	COc1ccccc1Nc1nc(C)cc(=O)[nH]1
-14%	COC(F)(C(=O)Nc1ccc2c(c1)C(=O)NC2=O)C(F)(F)F (stereo not drawn)
9%	CC(C)CCNC(=O)CN(C(=O)CCC(=O)Nc1ccccn1)c1ccc2c(c1)OCCO2

Gathered by group, the compounds so far with a CF3 group
HPGD block	Molecule
-9%	CCOC(=O)/C=c1\s/c(=C\c2ccc(C(F)(F)F)cc2)c(=O)n1CC(=O)NCc1ccco1
-14%	COC(F)(C(=O)Nc1ccc2c(c1)C(=O)NC2=O)C(F)(F)F (stereo not drawn)

Arranged by the number under HPGD block (highest first): some entries from above
HPGD block	Molecule
-7%	O=C(CSc1ncccn1)Nc1ccc(S(=O)(=O)N2CCCCC2)cc1
-10%	O=C(C1=C(O)C(=O)N(c2ncccn2)C1c1cccs1)c1ccco1 (stereo not drawn)
-14%	COC(F)(C(=O)Nc1ccc2c(c1)C(=O)NC2=O)C(F)(F)F (stereo not drawn)
-15%	O=C(O)CCc1ccc(-c2ccccc2)[nH]1

(further entries)
HPGD block	Molecule
-10%	CCc1nnc(NC(=O)CCN(c2ccc(C)cc2)S(=O)(=O)c2ccccc2)s1
25µM*	Cc1c(Br)cc(C(=O)NCc2ccco2)c(C)c1C
18µM*	CC(C)OC(=O)CSc1nnc(-c2ccc(C(C)(C)C)cc2)n1N
-6%	Cc1cc(Nc2cccc(C(F)(F)F)c2)n2nc(C)nc2n1
-12%	CCc1ccc(Nc2oc(C)cc(=O)c2C(C)=O)cc1
-2%	Cc1ccc(N2C(=O)c3ccccc3C2Nc2ccc(S(=O)(=O)N3CCCCC3)cc2)nc1 (stereo not drawn)
-6%	Cn1c(CCN2CCN(c3ccc(F)cc3)CC2)nc2cc(NC(=O)c3ccco3)ccc21
60%[activator]	Cc1cc(C)c2cc(CN(CC3CCCO3)S(=O)(=O)c3ccc4c(c3)OCCO4)c(=O)[nH]c2c1 (stereo not drawn)
-8%	COc1ccccc1CNCc1cccs1
-20%	O=C(COC(=O)[C@H](Cc1ccccc1)NC(=O)c1cccs1)NC1CCCCC1
-21%	COc1ccc2[nH]c(=O)c(CN(CCO)S(=O)(=O)c3ccc4c(c3)OCCO4)cc2c1
-6%	COc1ccc2c(=O)c(-c3ccccc3C)c(C)oc2c1
-20%	CC1(C)Cc2c(sc(NC(=O)c3ccc(Br)o3)c2C#N)CO1
-22%	COC(=O)/C(=C\Nc1cccc(Cl)c1C)c1ncc(C(F)(F)F)cc1Cl
?	O=C(Nc1ccc(-c2noc(-c3ccccc3F)n2)cc1)c1cccs1

Next section; the last six above are carried over.
HPGD block	Molecule
-20%	O=C(COC(=O)[C@H](Cc1ccccc1)NC(=O)c1cccs1)NC1CCCCC1
-21%	COc1ccc2[nH]c(=O)c(CN(CCO)S(=O)(=O)c3ccc4c(c3)OCCO4)cc2c1
-6%	COc1ccc2c(=O)c(-c3ccccc3C)c(C)oc2c1
-20%	CC1(C)Cc2c(sc(NC(=O)c3ccc(Br)o3)c2C#N)CO1
-22%	COC(=O)/C(=C\Nc1cccc(Cl)c1C)c1ncc(C(F)(F)F)cc1Cl
?	O=C(Nc1ccc(-c2noc(-c3ccccc3F)n2)cc1)c1cccs1
-9%	COc1ccc(-c2c(C#N)c(SCc3c(C)noc3C)nc3c2C(=O)CC(C)(C)C3)cc1
-6%	O=C1C[C@H]2C(=O)[C@@H]1[C@@H](C(=O)O)[C@H]2C(=O)O
?	c1ccc(N2CCN(c3ncnc4scc(-c5cccs5)c34)CC2)cc1
-13%	CCC(=O)OCc1c(C(F)(F)F)nn(C)c1Sc1ccc(F)cc1
-1%	O=C(NCCCN1CCOCC1)c1cc2c(s1)CCCC2
?	CCc1ccc(OCC(O)CN2CCC(CN3C(=O)c4cccc5cccc(c45)C3=O)CC2)cc1 (stereo not drawn)
-3%	Cc1nc2c(cc1C(=O)N/N=C/c1ccc(O)c(O)c1)c(=O)n(C)c(=O)n2C
-5%	CCCS(=O)(=O)c1nc(S(=O)(=O)c2ccc(C)cc2)c(NCCN2CCOCC2)s1
-12%	CCOC(=O)C1C/C(=C\C(C)=O)c2cccc(C(F)(F)F)c2O1 (stereo not drawn)
-4%	CCc1cccc(C)c1NC(=O)CN1C(=O)c2ccccc2S1(=O)=O
?	CN1/C(=C/C(=O)c2nc(S(C)(=O)=O)ncc2Cl)C(C)(C)c2ccccc21
-10%	O=C(NCCc1csc(-c2ccccc2)n1)c1cccs1
-6%	CCOC(=O)C1CCCC(NS(=O)(=O)c2ccc(NC(C)=O)cc2)C1 (stereo not drawn)
-26%	COc1ccc2cnn(-c3ccccc3C)c(=O)c2c1OC
-9%	O=C(Cc1ccccc1)Nc1ccc(N2CCCC2)cc1
-19%	C/C(=N/NC(=O)c1cn(-c2cccc(C)n2)cn1)c1ccc(C)cc1
-13%	S=C1NC2=C(CCCC2)C2(CCCCC2)N1
-16%	CCS(=O)(=O)N1Cc2ccccc2CC1C(=O)Nc1nc2c(C)cccc2s1 (stereo not drawn)
1%	CC(=O)NNC(=O)c1ccncc1
-2%	CSc1nsc(SC)c1C(=O)N1CCN(S(=O)(=O)c2ccc(C)cc2)C1C (stereo not drawn)
-8%	CCOCCc1nnc(NC(=O)c2cccs2)s1
-20%	CCCC(C(=O)NCc1ccc(OC)cc1)N(Cc1ccco1)C(=O)c1snc(C(N)=O)c1N (stereo not drawn)
-1%	O=[N+]([O-])c1ccc(N/N=C\c2cccn2-c2ccccc2)nc1
-8%	Cc1cccc(NC(=O)CSc2nnc(CNC(=O)c3ccc(S(=O)(=O)N(C)C)cc3)n2-c2ccc(F)cc2)c1
14µM*	CC(C)c1onc(C(=O)N2CCCCC2)c1[N+](=O)[O-]
-10%	CCn1cc(C2=NC(C(C)C)CO2)c2ccccc21 (stereo not drawn)
-12%	Cc1cccc(C)c1OCc1nnc(NC(=O)CSc2ccc(Cl)cc2)s1
?	CCCCNC(=O)/C(C#N)=C/c1ccc(-c2ccc(S(=O)(=O)N3CCOCC3)cc2)o1
-8%	Cn1cccc1C(=O)N1CCC[C@@]2(CCN(Cc3ccccc3)C2)C1
-9%	CN(C)c1ccc(/C=N\Nc2nc(-c3ccccc3)cc(=O)[nH]2)cc1
-2%	Cn1c(=O)c2c(nc(CN3CCC(C(N)=O)CC3)n2Cc2c(Cl)cccc2Cl)n(C)c1=O
-6%	OCCN(CCO)Cc1csc2ccccc12
